Screening results as filed in PubChem BioAssay.
E coli growth – blocks Escherichia coli growth; OD600, 23 h; stronger effect = lower value; AID 1053175; OD600 absorbance (no concentration beside the values); 0.21% of 330,000 active;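 active = OD600 absorbance below the run mean of sample wells minus 3.6 SD, in any replicate, cut at about 0.56 in these data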;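 note: stock transfer was 300 nL into about 60 µL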
Active calls of the source: *; & = joins results of further samples.

Sample of the layout:
SMILES: C=CCNC(=O)N1C2=NC(C(=O)OC)=C(C(=O)OC)C3N(Cc4ccccc4)c4ccccc4[C@]23CC1C(=O)OC (some centres not stated)
  E coli growth = 0.717

SMILES: CC1(C)CCC(=O)N2CCC3CC(OC(=O)Nc4ccc5c(c4)OCO5)CC1C32 (configuration not stated)
  E coli growth = 0.701

SMILES: Cc1ccc(NC=C(C#N)c2ccsc2)cc1
  E coli growth = 0.654

SMILES: O=C(C(=CO)N=Nc1cccc(C(F)(F)F)c1)c1ccccc1
  E coli growth = 0.655

SMILES: CCC(=CC(=O)c1ccncc1)Nc1ccc(Br)cc1
  E coli growth = 0.678

SMILES: CC(C)(C)OC(=O)NC(COCc1ccccc1)C(=O)NC(CO)C(O)C1CC1C(=O)N1CCCC1 (configuration not stated)
  E coli growth = 0.698

SMILES: O=C(COC(=O)C=Cc1ccc(Cl)cc1Cl)NCCC1=CCCCC1
  E coli growth = 0.697

SMILES: CCOC1OC(C(N)=O)=CC(C(C)(C)C)C1CCCO (configuration not stated)
  E coli growth = 0.632&0.677

SMILES: CN1CCN(C(=O)C2=CC(c3csc4ccccc34)CC(OCc3ccc(CO)cc3)O2)CC1 (configuration not stated)
  E coli growth = 0.624

SMILES: COc1ccc(CN2C(CC(C)=O)c3ccc(C=CC(C)=O)cc3S2(=O)=O)cc1 (configuration not stated)
  E coli growth = 0.711

SMILES: O=C(CC1CC=CCC(Cc2ccc(F)cc2)C(=O)OCC(Cc2ccccc2)NC1=O)NC(CO)Cc1ccccc1 (configuration not stated)
  E coli growth = 0.654

SMILES: CCCCOc1ccc(C=CC(=O)OCC(=O)c2c(N)n(C)c(=O)n(C)c2=O)cc1OCC
  E coli growth = 0.661

SMILES: CCCCCCSc1ccc(C2C3C(=O)N(CC)C(=O)C3[C@]3(C(=O)OC)CCCCN23)cc1 (some centres not stated)
  E coli growth = 0.615

Results, from the start:
SMILES: C=CCNC(=O)N1C2=NC(C(=O)OC)=C(C(=O)OC)C3N(Cc4ccccc4)c4ccccc4[C@]23CC1C(=O)OC (some centres not stated)
  E coli growth = 0.717

SMILES: CC1(C)CCC(=O)N2CCC3CC(OC(=O)Nc4ccc5c(c4)OCO5)CC1C32 (configuration not stated)
  E coli growth = 0.701

SMILES: Cc1ccc(NC=C(C#N)c2ccsc2)cc1
  E coli growth = 0.654

SMILES: O=C(C(=CO)N=Nc1cccc(C(F)(F)F)c1)c1ccccc1
  E coli growth = 0.655

SMILES: CCC(=CC(=O)c1ccncc1)Nc1ccc(Br)cc1
  E coli growth = 0.678

SMILES: CC(C)(C)OC(=O)NC(COCc1ccccc1)C(=O)NC(CO)C(O)C1CC1C(=O)N1CCCC1 (configuration not stated)
  E coli growth = 0.698

SMILES: O=C(COC(=O)C=Cc1ccc(Cl)cc1Cl)NCCC1=CCCCC1
  E coli growth = 0.697

SMILES: CCOC1OC(C(N)=O)=CC(C(C)(C)C)C1CCCO (configuration not stated)
  E coli growth = 0.632&0.677

SMILES: CN1CCN(C(=O)C2=CC(c3csc4ccccc34)CC(OCc3ccc(CO)cc3)O2)CC1 (configuration not stated)
  E coli growth = 0.624

SMILES: COc1ccc(CN2C(CC(C)=O)c3ccc(C=CC(C)=O)cc3S2(=O)=O)cc1 (configuration not stated)
  E coli growth = 0.711

SMILES: O=C(CC1CC=CCC(Cc2ccc(F)cc2)C(=O)OCC(Cc2ccccc2)NC1=O)NC(CO)Cc1ccccc1 (configuration not stated)
  E coli growth = 0.654

SMILES: CCCCOc1ccc(C=CC(=O)OCC(=O)c2c(N)n(C)c(=O)n(C)c2=O)cc1OCC
  E coli growth = 0.661

SMILES: CCCCCCSc1ccc(C2C3C(=O)N(CC)C(=O)C3[C@]3(C(=O)OC)CCCCN23)cc1 (some centres not stated)
  E coli growth = 0.615

SMILES: O=S1(=O)CCOC2Cc3ccccc3C2N1Cc1ccccc1F (configuration not stated)
  E coli growth = 0.675

SMILES: O=C1C=C(c2ccc(F)cc2OCc2ccccc2)CC(c2ccc(F)cc2)C1 (configuration not stated)
  E coli growth = 0.719

SMILES: CC(C)C(=O)NC(=O)C1CCCN1C(=O)C=Cc1ccccc1 (configuration not stated)
  E coli growth = 0.676

SMILES: CC(C)CC(CC#N)N1CCN(Cc2ccccc2)CCC1=O (configuration not stated)
  E coli growth = 0.683

SMILES: COC(=O)C1C[C@@]2(O)C(O)C(O)C(O)CC2N1Cc1cc(F)ccc1F (some centres not stated)
  E coli growth = 0.7

SMILES: O=C(O)C=Cc1ccc(Cn2ccnc2)cc1
  E coli growth = 0.729

SMILES: C=CCCOC1OC(C)C(O)CC1O (configuration not stated)
  E coli growth = 0.713

SMILES: C#CCOCCOCCOCCNc1nc(N2CCN(C(=O)C(CCC(=O)O)n3cc(C(N)CO)nn3)CC2)nc(N2CCN(C(=O)C(CCC(=O)O)n3cc(C(N)C(C)CC)nn3)CC2)n1 (configuration not stated)
  E coli growth = 0.668

SMILES: CCN1CC2C3C(=O)N(C)C(=O)C3[C@](C)(C1=O)N2C(=O)c1ccc(Cl)c(Cl)c1 (some centres not stated)
  E coli growth = 0.642

SMILES: C#CCOCCOCCOCCNc1nc(N2CCN(C(=O)Cn3cc(CCCN=C(N)N)nn3)CC2)nc(N2CCN(C(=O)C(CCCCN)n3cc(CCC(=O)O)nn3)CC2)n1 (configuration not stated)
  E coli growth = 0.705

SMILES: COC(=O)CC1c2cc(F)ccc2S(=O)(=O)N1Cc1ccccc1OC (configuration not stated)
  E coli growth = 0.646

SMILES: COc1cc(-c2noc(C)c2C=Cc2ccc(OC(C)=O)cc2)cc(OC)c1OC
  E coli growth = 0.648

SMILES: O=C(C1=CC(c2ccc(Br)cc2)CC(OCc2ccc(CO)cc2)O1)N1CCOCC1 (configuration not stated)
  E coli growth = 0.718&0.699

SMILES: C#CCOCCOCCOCCNc1nc(N2CCN(C(=O)CCCCCCCCCCNC(=O)Cn3cc(CC(C)O)nn3)CC2)nc(N2CCN(C(=O)CCCCCCCCCCNC(=O)C(CCC(=O)O)n3cc(CCCCCN)nn3)CC2)n1 (configuration not stated)
  E coli growth = 0.656

SMILES: O=C(C1=CC(c2coc3ccccc3c2=O)CC(OCc2ccc(CO)cc2)O1)N1CCOCC1 (configuration not stated)
  E coli growth = 0.657&0.673

SMILES: CCCCC1CNC(=O)C(=O)N1CCCc1cc(OC)c(OC)c(OC)c1 (configuration not stated)
  E coli growth = 0.613

SMILES: CCN1C(=O)C2C(c3ccc(-c4ccc(Cl)c(Cl)c4)c(OC)c3)N3CCC[C@@]3(C(=O)OC)C2C1=O (some centres not stated)
  E coli growth = 0.767

SMILES: COc1cc(-c2noc(C)c2C=Cc2ccc(N)cc2)cc(OC)c1OC
  E coli growth = 0.678

SMILES: Cc1ccc(CN2C3c4ccccc4CC3OCCS2(=O)=O)cc1 (configuration not stated)
  E coli growth = 0.649

SMILES: COC(=O)CC1c2cc(C(F)(F)F)ccc2S(=O)(=O)N1C(C)(C)C (configuration not stated)
  E coli growth = 0.656

SMILES: CC1CN(C(C)CO)C(=O)c2cccc(NS(=O)(=O)c3cn(C)cn3)c2OC1CN(C)C(=O)NC1CCCCC1 (configuration not stated)
  E coli growth = 0.627

SMILES: O=C(NC(Cc1ccccc1)C(=O)O)c1ccc(C(F)(F)F)cc1 (configuration not stated)
  E coli growth = 0.705

SMILES: CCC(C)Cc1cn(C(CCCCN)C(=O)NCCCCCCCCCCC(=O)N2CCNCC2)nn1 (configuration not stated)
  E coli growth = 0.644

SMILES: CC1CN(C(C)CO)C(=O)Cc2cc(NC(=O)Nc3ccc4c(c3)OCO4)ccc2OC1CN(C)S(=O)(=O)c1cccs1 (configuration not stated)
  E coli growth = 0.673

SMILES: Cc1ccc2c(c1)C1C(CO2)C(c2ccccc2)[C@]2(C)C(=O)NC(C)C(=O)N12 (some centres not stated)
  E coli growth = 0.702

SMILES: COc1ccc(C2CC=C(C(=O)O)C(c3ccc(F)cc3)N2S(=O)(=O)c2ccc(Cl)cc2)cc1 (configuration not stated)
  E coli growth = 0.726

SMILES: O=C(Cc1ccccc1)NC(Cc1ccc(O)cc1)C(=O)O (configuration not stated)
  E coli growth = 0.64

SMILES: CCCCN1CC(=O)N2C(c3ccc(Cl)cc3)C3C(=O)N(CC)C(=O)C3[C@]2(C)C1=O (some centres not stated)
  E coli growth = 0.674

SMILES: CCC1=C2CCC3C(=O)N(CC)C(=O)C3C2[C@@]2(Cc3ccccc3)C(=O)N(Cc3ccccc3)C(=O)N2C1=O (some centres not stated)
  E coli growth = 0.659

SMILES: CC(C)C(NC(=O)Nc1ccc(Oc2ccccc2)cc1)C(=O)O (configuration not stated)
  E coli growth = 0.74

SMILES: COc1ccc(C2CC(=O)C=C(c3c(OC)cccc3OC)C2)cc1 (configuration not stated)
  E coli growth = 0.657

SMILES: CNC(=O)c1[nH]cnc1C(=O)NC(Cc1ccccc1)C(=O)OC(C)(C)C (configuration not stated)
  E coli growth = 0.659

SMILES: C#CCOCCOCCOCCNc1nc(N2CCOCC2)nc(N2CCN(C(=O)C(Cc3cc4ccccc4[nH]3)n3cc(C(N)Cc4ccc(O)cc4)nn3)CC2)n1 (configuration not stated)
  E coli growth = 0.661

SMILES: CCOC(=O)C1C2COc3ccc(OC)cc3C2N2C(=O)c3cc(C)ccc3NC(=O)[C@@]12C (some centres not stated)
  E coli growth = 0.67

SMILES: CC1CN(C(C)CO)C(=O)c2cc(NC(=O)Nc3ccc(C(F)(F)F)cc3)ccc2OC1CN(C)C(=O)Nc1ccc(C(F)(F)F)cc1 (configuration not stated)
  E coli growth = 0.676

SMILES: COCCNC(=O)C(C#N)=Cc1ccc(CNC(=O)C(=O)Nc2ccc(C)c(C)c2)o1
  E coli growth = 0.728

SMILES: NC(=O)C1=CC(c2ccc3c(c2)OCO3)CC(OCc2ccc(CO)cc2)O1 (configuration not stated)
  E coli growth = 0.679

Remaining list, next part:
SMILES | E coli growth
c1ccc(CC2CN=C(Nc3ccccc3)N2CC2CCCCCC2)cc1 (configuration not stated) | 0.673
CC1CN(C(C)CO)C(=O)c2cc(NC(=O)CCN3CCOCC3)ccc2OC1CN(C)C(=O)Nc1ccccc1 (configuration not stated) | 0.702
CC(C)CC(CO)N1CCN(Cc2ccc(O)cc2)CCC1=O (configuration not stated) | 0.672
CC(C)CC(CO)N1CCN(Cc2ccc([N+](=O)[O-])cc2)CCC1=O (configuration not stated) | 0.708
C=CC(CC(C)C)N(Cc1ccccc1)S(=O)(=O)N(Cc1ccccc1)C(C=C)CC(C)C (configuration not stated) | 0.715
CC(C)CC(NC(=O)Nc1ccccc1F)C(=O)O (configuration not stated) | 0.688
C#CCOCCOCCOCCNc1nc(N2CCN(C(=O)C(CCC(=O)O)n3cc(C(N)C(C)CC)nn3)CC2)nc(N2CCN(C(=O)C(Cc3cc4ccccc4[nH]3)n3cc(C(N)C(C)CC)nn3)CC2)n1 (configuration not stated) | 0.659
C#CCOCCOCCOCCNc1nc(N2CCN(C(=O)C(CCCCN)n3cc(C(N)CO)nn3)CC2)nc(N2CCN(C(=O)C(Cc3ccc(O)cc3)n3cc(C(N)CC(C)C)nn3)CC2)n1 (configuration not stated) | 0.6
OCCC1CC(O)C(O)[C@@]2(Cc3ccccc3CCO2)O1 (some centres not stated) | 0.652&0.68&0.695&0.692
c1ccc(C2CN3C(=N2)Sc2ccccc23)cc1 (configuration not stated) | 0.632
CN(C)C(N)=NCCCC(N)C(=O)O (configuration not stated) | 0.716
Cc1cccc(CCN2C(N(C)C)=NCC2Cc2ccccc2)c1 (configuration not stated) | 0.695
CCC(C)C(NC(=O)NC(C)C)C(=O)O (configuration not stated) | 0.675
NC1=NCC(Cc2ccc(O)cc2)N1CCc1cc(C(F)(F)F)cc(C(F)(F)F)c1 (configuration not stated) | 0.681&0.632
COC(=O)[C@@]1(Cc2ccc(OC)cc2)C2c3cc(C(=O)N(C)C)n(CC(O)CO)c3CC2CN1C(=O)c1ccccc1 (some centres not stated) | 0.677
Clc1ccc(C2C3CN(Cc4cccnc4)C(c4ccccc4)C34CC2(c2ccccc2)C4)cn1 (configuration not stated) | 0.709
CN(C)C1C(=O)C(C(N)=O)=C(O)[C@@]2(O)C(=O)C3=C(O)c4c(O)ccc(Cl)c4C(O)C3CC12 (some centres not stated) | 0.063*
CCOC1OC(C(=O)NC2CC2)=CC(C)C1CCCO (configuration not stated) | 0.653&0.698
C#CCOCCOCCOCCNc1nc(N2CCN(C(=O)C(CCC(=O)O)n3cc(C(N)CC(C)C)nn3)CC2)nc(N2CCN(C(=O)C(Cc3cc4ccccc4[nH]3)n3cc(C(N)CC(C)C)nn3)CC2)n1 (configuration not stated) | 0.687
COC(=O)[C@@]1(Cc2ccc(OC)cc2)C2c3cc(C(=O)N(C)C)n(Cc4c(CO)[nH]cc(C)c4=O)c3CC2CN1C(=O)c1ccccc1 (some centres not stated) | 0.712
CCOC1OC(C(=O)N2CCN(Cc3ccccc3)CC2)=CC(c2csc3ccccc23)C1CCCO (configuration not stated) | 0.637
C=CCSC1=NC(=Cc2ccsc2)C(=O)S1 | 0.706
CC1(C)CC2C3=CCC4[C@@]5(C)CCC(O)[C@@](C)(CO)C5CC[C@@]4(C)[C@]3(C)CC(O)[C@@]2(CO)C(O)C1O (some centres not stated) | 0.705
COC(=O)[C@@]1(Cc2ccc(F)cc2)C2c3cc(C(=O)N(C)C)n(Cc4ccc(OC(F)(F)F)cc4)c3CC2CN1C(=O)c1ccccc1 (some centres not stated) | 0.727
N#CC(=Cc1ccc(Cl)cc1)c1n[nH]c(Cn2cncn2)n1 | 0.67
CN(C)c1ccc(NC(=O)C=Cc2ccccc2Cl)cc1 | 0.686
CC(C)C(NC(=O)c1ccccc1)C(=O)OCC(=O)C=C1N(C)c2ccccc2C1(C)C (configuration not stated) | 0.684
N#CC1N(Cc2ccccc2)C(=O)C2CC3C=CC21O3 (configuration not stated) | 0.678
Cc1cc(C)nc(NC(=O)C=Cc2ccc3c(c2)OCO3)c1 | 0.697
COc1ccc(C=CC(=O)OCC(=O)NCC2CCCO2)cc1 (configuration not stated) | 0.718
Cc1onc(-c2c(F)cccc2Cl)c1C(=O)NC1C(=O)N2C1SC(C)(C)C2C(=O)O (configuration not stated) | 0.656
COC(=O)C1=C(C(=O)OC)C2N(C)c3ccc(OC)cc3[C@@]23CC(C(=O)OC)N(C(=O)NC2CCCCC2)C3=N1 (some centres not stated) | 0.721
O=C(C=Cc1cccc([N+](=O)[O-])c1)Nc1cc(C(=O)O)cc(C(=O)O)c1 | 0.689

An excerpt; count on the stated rates, not on these rows.
